Rce1 inh: inhibitors of yeast Ras-converting enzyme; AID 2563; yeast membranes, quenched prenylated peptide cleavage fluorescence; actives 0.27% (n = 290,000); Q03530; calls only;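 active = fall in fluorescence gain of 50% or more versus controls, with final raw signal at or below 3038400; inconclusive = same 50% fall but final raw signal above 3038400; inactive = fall in fluorescence gain under 50%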;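 also: plate controls were neutral control wells for no effect and wells lacking membranes for full effect; tested at 10 µM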
CSC inhib: blocks cancer stem cells | cancer stem cell-like cells viability, luminescence | inhibition, % at 7.5 µM | actives 1.1% (n = 300,000) | AID 2717;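 active = mean at 75% or more and at least half the replicates too; inconclusive = mean and replicates disagree; tested in HMLE shEcad cells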;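 also: 0% = median of negative and 100% = median of positive control wells; the first replicate is given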
MT1-MMP act inh: blocks activation of human MT1-MMP. GFP/RFP ratio change, % at 20 µM. actives 0.061% (n = 360,000). P50281. HT1080 RFP-PRO-GFP cells, GFP/RFP ratio fluorescence, overnight; percent of plate control window, DMSO zero;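 active = GFP/RFP ratio change of at least 30% with cell ATP level not reduced by more than half and red fluorescence within 50% of control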; also: strong numbers were not always called active
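Assay system: RFP-PRO-GFP reporter HT1080 cells; read-out basis: GFP/RFP fluorescence ratio; benchmarks: DMSO wells and RFP-L50D-GFP cells; doses: 20 µM single dose, 1% DMSO; schedule: overnight cell settling, then overnight compound exposure, 37 °C, 5% CO2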
eIF4H FP inh: inhibitors of RNA binding by human eIF4H. Q15056. eIF4H fluorescence polarization binding assay. inhibition, % at 35 µM. actives 0.94% (n = 290,000);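 active = 50% or more with normal probe brightness, or confirmed in later tests; inconclusive = above 50% with abnormal brightness, or retests that disagree; inactive = below 50% or failed in later tests; about a fifth of its hits are not listed in these tables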;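 also: calls also rest on retests at 20 µM and on dose response follow-up; 0% = protein and probe with vehicle and 100% = probe without protein; strong numbers were not always called active; many hits fall short of the cut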
PABP FP inh: PABP-poly(A) binding inhibition; P11940; PABP-poly(A) RNA binding, fluorescence polarization; inhibition, % at 35 µM; actives 1% (n = 290,000);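 active = 50% or more with normal probe brightness, or confirmed in later tests; inconclusive = above 50% with abnormal brightness, or retests that disagree; inactive = below 50% or failed in later tests; about a fifth of its hits are not listed in these tables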;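 also: calls also rest on retests at 20 µM and on dose response follow-up; controls were probe without protein and protein plus probe with vehicle; some compounds called inactive have numbers as strong as hits; many hits fall short of the cut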
Target sequence (P11940 whole entry, looked up): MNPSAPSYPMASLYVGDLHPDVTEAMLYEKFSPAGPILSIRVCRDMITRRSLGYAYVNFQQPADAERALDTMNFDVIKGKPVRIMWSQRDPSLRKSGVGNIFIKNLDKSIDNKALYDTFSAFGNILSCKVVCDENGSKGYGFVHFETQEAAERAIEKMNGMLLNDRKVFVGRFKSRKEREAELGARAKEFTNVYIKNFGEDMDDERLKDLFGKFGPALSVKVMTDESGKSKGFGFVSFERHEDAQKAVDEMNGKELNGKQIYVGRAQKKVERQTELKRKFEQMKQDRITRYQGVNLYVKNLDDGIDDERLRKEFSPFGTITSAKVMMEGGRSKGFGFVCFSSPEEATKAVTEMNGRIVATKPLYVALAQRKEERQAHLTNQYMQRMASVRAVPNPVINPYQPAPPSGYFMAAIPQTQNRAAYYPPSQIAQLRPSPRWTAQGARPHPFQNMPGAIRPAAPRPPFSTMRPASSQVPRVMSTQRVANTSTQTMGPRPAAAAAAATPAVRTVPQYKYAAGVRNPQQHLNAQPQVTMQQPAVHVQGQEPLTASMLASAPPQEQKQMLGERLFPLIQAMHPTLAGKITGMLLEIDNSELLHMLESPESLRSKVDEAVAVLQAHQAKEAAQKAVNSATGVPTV
UUG fidelity: alters start codon recognition fidelity in yeast; AID 602363; actives 0.13% (n = 350,000); activity score, % at 18.7 µM; S. cerevisiae UUG-firefly luciferase reporter, luminescence/redox ratio;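 active = replicate mean at a twofold rise or more, about +100% in these data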;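 also: firefly luciferase made from a UUG start codon reports start codon fidelity; reporter light over untreated wells divided by growth signal over untreated wells; some hits fall short of that in this replicate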
HIV Env fusion: HIV envelope-mediated fusion inhibition. HeLa-JRFL Env/CEM21 cell fusion, luciferase. inhibition, % at 12.3 µM. actives 1.1% (n = 360,000). AID 651610;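 active = mean replicate inhibition score of at least 50 and every replicate individually at or above 50; inconclusive = only one of the two criteria met; inactive = mean below 50 and not all replicates reaching 50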;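 also: 0% = plate neutral controls and 100% = maraviroc near 300 nM; one replicate is shown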
MT1-MMP act inh RFP: second read-out of MT1-MMP act inh, no call of its own (marks repeat the call); RFP signal change, %; measured here: RFP expression control read;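 0 = vehicle wells; hits needed this value within 50% of zero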
The depositor's hits bear a star; i = inactive; ? = inconclusive; / = no result given; & = joins results of further samples.

SMILES	Rce1 inh	CSC inhib	MT1-MMP act inh	MT1-MMP act inh RFP	eIF4H FP inh	PABP FP inh	UUG fidelity	HIV Env fusion
Cc1cc(OCC(=O)NCc2cccnc2)c2c(C)c(C)c(=O)oc2c1	i	-12	-1	1	9	2	-14	-6
O=C1CC(SC2=NCCS2)C(=O)N1c1cccc(Cl)c1Cl (stereo unspecified)	i	2	1	3	6	-5	/	-12
O=S(=O)(/N=C(/c1ccccc1)N1CCCCC1)c1ccccc1	i	-9	-2	4	-3	-2	/	-13
Cc1ccccc1NC(=O)CCC(=O)N/N=C/c1ccc(F)cc1	i	9	2	7	-6	2	/	-14
Cc1cccc(NC(=S)N/N=C2\CC(C)(C)Oc3ccc(O)cc32)c1	i	58	1	-10	13	4	/	42
CCN(CC)C1CCN(C(=O)c2ccc(OC3CCN(CCc4ccccc4)CC3)cc2)C1 (stereo unspecified)	i	3	9	4	16	5	28	/
COc1ccc(-c2nc(C(=O)NCCCN3CCOCC3)cc3c2[nH]c2ccccc23)cc1OC	i	-3	24	-4	1	9	-18	/
O=C(CSc1nnc(COc2ccc(Br)cc2)o1)NC1CCCCC1	i	/	-3	0	-8	0	-3	-24
C[C@@H](NC(=O)c1nc[nH]c1C(=O)NCC(=O)OC(C)(C)C)c1ccccc1	i	3	9	-4	-4	-2	2	23
O=C(COC(=O)C1CC2C=CC1C2)Nc1cccc(S(=O)(=O)N2CCCCCC2)c1 (stereo unspecified)	i	-10	0	0	-3	-3	/	34
COc1ccc(CCNC(=O)c2ccc3c(=O)n4c(nc3c2)CCC4)cc1OC	/	/	2	-2	/	/	-8	-45
CC1CCCN(S(=O)(=O)c2coc(C(N)=O)c2)C1 (stereo unspecified)	i	/	-1	4	-5	6	-15	-201
CN(Cc1ccon1)C(=O)CC1C(=O)NCCN1Cc1ccccc1C(F)(F)F (stereo unspecified)	i	/	1	3	12	7	-7	1
N#C/C(=C\c1ccc(OC(=O)c2ccc(Br)s2)cc1)c1nc2ccccc2[nH]1	/	11	-18	-5	27	4	-8	-6
CCNc1nnc(-c2ccncc2)s1	?	1	2	6	-3	-7	-22	18
CCc1ccc(-c2nn(-c3cc(Cl)ccc3[N+](=O)[O-])c(=O)c3ccccc23)cc1	/	/	-4	-1	8	2	-16	/
O=C(CCCn1cc([N+](=O)[O-])cn1)NC1CCCCCC1	i	-6	7	-5	5	-10	/	4
Cc1onc(-c2ccccc2)c1-c1nnc(COC(=O)c2ccc(O)cc2)o1	/	/	-4	-5	/	/	0	-1
COc1ccc(Cl)cc1NC(=S)Nc1ccccc1F	i	8	-1	3	4	-1	-33	-6
COCCCN(CC(=O)O)S(=O)(=O)c1cccc(Cl)c1	i	-2	-3	1	-6	2	-16	6
CS(=O)(=O)Cc1ccc(C(=O)N2CCCC2c2cccs2)cc1 (stereo unspecified)	i	14	-3	-2	1	13	-8	-6
Cc1ccnc(NC(=O)CCC(=O)N(CC(=O)NCc2ccccc2)Cc2cccs2)c1	i	0	3	5	8	-8	/	7
Cc1cc(C)c2c(=O)[nH]c(SCc3ccccc3)nc2n1	i	4	0	0	-5	12	/	-4
O=S(=O)(NCc1ccncc1)c1ccc(F)c(F)c1	/	/	-5	-25	/	/	-18	28
C=C(C)CN(CC)C(=O)CN1C(=O)NC2(CCCc3ccccc32)C1=O (stereo unspecified)	i	-7	-1	-2	-3	-4	-11	-4

2 entries picked at random from those above:
SMILES	Rce1 inh	CSC inhib	MT1-MMP act inh	MT1-MMP act inh RFP	eIF4H FP inh	PABP FP inh	UUG fidelity	HIV Env fusion
Cc1onc(-c2ccccc2)c1-c1nnc(COC(=O)c2ccc(O)cc2)o1	/	/	-4	-5	/	/	0	-1
CCN(CC)C1CCN(C(=O)c2ccc(OC3CCN(CCc4ccccc4)CC3)cc2)C1 (stereo unspecified)	i	3	9	4	16	5	28	/

Of the compounds above, these have an aryl thioether with sulfur outside any ring:
SMILES	Rce1 inh	CSC inhib	MT1-MMP act inh	MT1-MMP act inh RFP	eIF4H FP inh	PABP FP inh	UUG fidelity	HIV Env fusion
O=C(CSc1nnc(COc2ccc(Br)cc2)o1)NC1CCCCC1	i	/	-3	0	-8	0	-3	-24
Cc1cc(C)c2c(=O)[nH]c(SCc3ccccc3)nc2n1	i	4	0	0	-5	12	/	-4

Following part
SMILES	Rce1 inh	CSC inhib	MT1-MMP act inh	MT1-MMP act inh RFP	eIF4H FP inh	PABP FP inh	UUG fidelity	HIV Env fusion
CC(NC(=O)Nc1ncccn1)(C(F)(F)F)C(F)(F)F	i	6	-6	0	-4	2	-17	-29
Cc1ccc(C(=O)N/N=C\c2cccn2C)cn1	i	-19	/	/	-16	2	-7	26
CN1CCN(C(=O)/C(=C\c2cccnc2)NC(=O)c2cccc(Br)c2)CC1	i	1	3	-2	3	-5	-18	14
[N-]=[N+]=NC[C@H](Cc1ccccc1)N1CCN(Cc2ccccc2)CCC1=O	i	2	0	0	-1	8	2	-47
CCn1cc(C(=O)N(C)c2ccc(OC)cc2OC)c2cc(OC)c(OC)cc2c1=O	i	-27	-4	0	8	4	14	15
CCCn1c(SCC(=O)N2CC(=O)Nc3ccccc32)nc2ccccc21	/	49	-2	1	-9	-16	-10	9
O=C(NC1CC1)C1CCCN(C(=O)NC2CCCCC2)C1 (stereo unspecified)	i	-9	0	1	2	7	/	-4
C=CCOC(=O)C1=C(C)Nc2nnnn2C1c1cccc(OC)c1OC (stereo unspecified)	i	-18	-7	5	2	3	-17	/
CCOC(=O)C1(C)NC(c2ccc(OC)cc2OC)C2C(=O)N(c3cccc(OC)c3)C(=O)C21 (stereo unspecified)	i	-4	5	4	-12	14	12	9
COC(=O)c1c(NC(=O)c2ccc(N(C)S(=O)(=O)c3ccc(C)cc3)cc2)sc2c1CCCC2	i	15	-5	-12	4	-17	/	/
COCc1cc(C)nc(Sc2nc3c(c(=O)n(C)c(=O)n3C)n2C)c1C#N	i	/	-9	3	2	32	-11	9
COc1c(C)cc(Br)cc1C(=O)Nc1cccc(NC(=O)c2ccco2)c1	i	-11	2	-5	4	1	-12	/
O=C1C2C3C=CC(C2C(=O)N1c1ccc(O)cc1)C1C2C(=O)N(c4ccc(O)cc4)C(=O)C2C31 (stereo unspecified)	i	4	-1	3	-2	7	/	-10
CN(C(=O)c1cccc(NC(=O)Cc2ccccc2)c1)c1ccccc1	/	-29	-1	-5	0	11	-12	-22
COc1ccccc1C(=O)OCc1cc(=O)n2ccsc2n1	/	-12	-7	-2	/	/	-20	/
Cc1cc(C)c(S(=O)(=O)N2CCCCC2CCNC(=O)C(=O)NCC2CCCO2)c(C)c1 (stereo unspecified)	i	2	-6	-9	/	/	/	5
O=C(c1ccc2c(c1)OCCO2)C1CCN(S(=O)(=O)c2cccc(F)c2)CC1	i	-6	-3	-2	0	3	-20	-42
C[C@H](CO)N1C[C@H](C)[C@@H](CN(C)S(C)(=O)=O)Oc2ccc(NC(=O)Nc3ccc4c(c3)OCO4)cc2C1=O	/	/	-4	3	/	/	-4&-12	-10
CCN(CC(=O)Nc1c(F)cccc1F)C(=O)c1ccc(N2CCCC2)c([N+](=O)[O-])c1	i	3	3	-5	/	/	18	/
O=S(=O)(c1cccc2c(S(=O)(=O)N3CCCC3)cccc12)N1CCCC1	i	-12	-2	-7	6	8	/	/
Cc1c(C)[n+](=O)c(-c2ccco2)c(C)n1[O-]	i	-10	-5	2	1	3	-20	-17
CCn1c(SCC(=O)Nc2nccs2)nnc1-c1cccnc1	i	-1	0	6	-5	-7	2	2
Cc1ccccc1S(=O)(=O)N1C[C@H]2[C@H]3C(=O)N(C4CCCCC4)C(=O)[C@H]3CC(=O)[C@H]2[C@@H]1c1ccc(Cl)cc1	/	/	1	-3	/	/	7	132*
CC(=O)C(=Nc1ccc(Cl)cc1Cl)NNc1cccc(Cl)c1	i	-12	3	3	-9	10	/	/
CC1CCCCN1C(=O)c1ccc(OC2CCN(S(=O)(=O)N(C)C)CC2)cc1 (stereo unspecified)	i	-1	0	-18	1	0	/	19

Part of the list above in order of SMILES length, low to high.
SMILES	Rce1 inh	CSC inhib	MT1-MMP act inh	MT1-MMP act inh RFP	eIF4H FP inh	PABP FP inh	UUG fidelity	HIV Env fusion
O=C(NC1CC1)C1CCCN(C(=O)NC2CCCCC2)C1 (stereo unspecified)	i	-9	0	1	2	7	/	-4
CC(NC(=O)Nc1ncccn1)(C(F)(F)F)C(F)(F)F	i	6	-6	0	-4	2	-17	-29
CC1CCCCN1C(=O)c1ccc(OC2CCN(S(=O)(=O)N(C)C)CC2)cc1 (stereo unspecified)	i	-1	0	-18	1	0	/	19
CCn1cc(C(=O)N(C)c2ccc(OC)cc2OC)c2cc(OC)c(OC)cc2c1=O	i	-27	-4	0	8	4	14	15
CCOC(=O)C1(C)NC(c2ccc(OC)cc2OC)C2C(=O)N(c3cccc(OC)c3)C(=O)C21 (stereo unspecified)	i	-4	5	4	-12	14	12	9
O=C1C2C3C=CC(C2C(=O)N1c1ccc(O)cc1)C1C2C(=O)N(c4ccc(O)cc4)C(=O)C2C31 (stereo unspecified)	i	4	-1	3	-2	7	/	-10

(listing goes on)
SMILES	Rce1 inh	CSC inhib	MT1-MMP act inh	MT1-MMP act inh RFP	eIF4H FP inh	PABP FP inh	UUG fidelity	HIV Env fusion
CC(=O)NCC1CCCN(C(=O)c2ccc(OC3CCN(Cc4ccccn4)CC3)cc2)C1 (stereo unspecified)	i	/	-1	4	12	4	/	1
COc1cccc(CNC(=O)C2CCCN(S(=O)(=O)N3CC(C)CC(C)C3)C2)c1 (stereo unspecified)	i	-2	-2	-1	-13	4	8	23
CCC(C)c1ccc(O)c(NC(=S)NC(=O)c2cccnc2)c1 (stereo unspecified)	i	31	-5	-9	15	4	/	-8
O=C(COC(=O)c1ccc([N+](=O)[O-])o1)Nc1cccc(S(=O)(=O)N2CCCCC2)c1	i	0	4	-1	0	5	4	-17
Cc1cc(NC(=O)CSc2ccc3nnc(-c4ccccn4)n3n2)no1	i	-8	3	4	8	17	-11	18
COc1ccc(C=O)cc1CSc1ccccn1	i	-8	-1	1	-2	5	-4	2
CC(=O)Nc1ccc(NC(=O)Cn2nc([N+](=O)[O-])c(Br)c2C)cc1	i	-4	-1	4	6	4	/	-9
COC(=O)[C@@H](NC(=O)Nc1cccc(Br)c1)C(C)C	i	-13	-3	-4	2	13	/	-7
CCN1C(=O)[C@H]2[C@@H](c3ccc(C)cc3)N[C@]3(CCCN(Cc4cccn4C)C3=O)[C@H]2C1=O	/	/	-2	-1	/	/	-3	3
CC(=O)Nc1ccc(NC(=O)c2ccc3c(c2)C(=O)N(c2ccccc2C)C3=O)cc1	i	-2	2	3	-3	2	1	10
COc1ccc(OC)c(NC(=O)CSc2ncnc3c2cnn3-c2ccccc2Cl)c1	i	/	-6	-23	2	0	-14	/
CC1C/C(=N\NC(=O)CCc2ccc(S(=O)(=O)N3CCOCC3)cc2)CC(C)(C)C1 (stereo unspecified)	i	-12	1	5	7	6	/	-18
Cc1cc(C)n(/N=C/c2cccs2)c(=O)c1C#N	/	10	1	5	5	14	/	2
O=C(O)c1cccc(S(=O)(=O)NCCc2ccccc2)c1	i	-10	-2	2	-2	-10	/	16
C=CCNc1nc(C)nc(OC)n1	i	-1	0	0	-11	-5	-3	-28
CC(=O)c1c(C(C)=O)c(C)n(C2CCCCC2)c1C	i	-10	-2	1	0	8	-26	/
O=C(Nc1ccc(Cl)cc1)C1(S(=O)(=O)c2ccccc2)CC1	/	-6	2	2	/	/	-20	9
Cc1nc(SCn2nnc3ccccc3c2=O)nc(C)c1C	i	/	1	4	-3	1	1	-20

The list is partial, so the mix of outcomes need not match the whole.
